Compound activity deposited in PubChem by several laboratories.
Arbovirus inh – antivirals against arbovirus infection, primary screen, cell-based, full library, 10K replicate subset; arbovirus infection cell-based antiviral screen; inhibition, % at 10 µM; 200,000 tested, 0.37% active; AID 1251, 2008;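 active = inhibition from about 30%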;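 note: bluetongue infection of BSR cells; cell survival read as ATP light after 72 h; 0% = infected wells without compound and 100% = uninfected wells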
RecA intein inh – Mtb RecA intein splicing inhibitors, primary screen, biochemical, fluorescence, HTS; inhibition, %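 (about 9 µM by stock and volumes)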; Protein RecA (Mycobacterium tuberculosis (strain ATCC 25618 / H37Rv)), P9WHJ3; 290,000 tested, 0.75% active; AID 2221, 2009; cell-free RecA intein splicing; in the data active = inhibition above about 30%; inconclusive = no clear call, values can overlap the other calls;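 note: 0% = vehicle wells and 100% = reference inhibitor control wells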
Target sequence (P9WHJ3 whole entry, looked up): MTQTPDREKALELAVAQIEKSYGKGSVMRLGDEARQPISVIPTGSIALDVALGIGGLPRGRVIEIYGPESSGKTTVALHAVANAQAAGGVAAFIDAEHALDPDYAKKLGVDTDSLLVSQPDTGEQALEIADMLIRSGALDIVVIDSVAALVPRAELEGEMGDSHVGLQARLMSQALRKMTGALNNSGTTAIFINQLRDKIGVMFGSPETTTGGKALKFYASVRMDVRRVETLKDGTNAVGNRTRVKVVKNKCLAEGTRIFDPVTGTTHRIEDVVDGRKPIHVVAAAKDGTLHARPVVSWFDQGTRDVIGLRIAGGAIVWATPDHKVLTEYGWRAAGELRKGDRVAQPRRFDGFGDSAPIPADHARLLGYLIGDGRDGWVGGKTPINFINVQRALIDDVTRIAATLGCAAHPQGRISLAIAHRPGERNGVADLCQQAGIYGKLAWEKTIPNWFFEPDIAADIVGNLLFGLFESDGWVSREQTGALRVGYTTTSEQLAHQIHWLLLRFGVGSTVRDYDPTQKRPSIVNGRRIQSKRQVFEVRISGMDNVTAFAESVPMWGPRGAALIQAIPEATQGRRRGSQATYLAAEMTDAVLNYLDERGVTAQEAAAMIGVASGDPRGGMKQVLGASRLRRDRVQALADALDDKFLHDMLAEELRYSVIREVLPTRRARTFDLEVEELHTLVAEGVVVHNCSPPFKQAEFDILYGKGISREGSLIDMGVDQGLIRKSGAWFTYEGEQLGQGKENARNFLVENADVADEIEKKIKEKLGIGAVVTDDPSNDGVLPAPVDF
Mtb H37Rv – M. tuberculosis H37Rv growth inhibitors, H37Rv strain (AID 1626); M. tuberculosis H37Rv growth inhibition; higher % means a stronger effect; inhibition, % at 10 µM; hits with a dose series show IC50 in µM; 220,000 tested, 0.95% active;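 active = confirmed in a dose series; inconclusive = inhibition above 80% but not taken into the dose series; inactive = below 80% or under 30% at every dose of the series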;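 note: bacteria incubated seven days before Alamar blue readout; 0% = bacteria only wells and 100% = bacteria with antibiotic wells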
Mtb betalactam – beta-lactam sensitization of Mtb H37Rv, H37Rv | M. tuberculosis H37Rv growth with meropenem, percent inhibition; hits of this screen are not shown here | inhibition, % at 25 µM | 330,000 tested, 0.27% active | AID 434955, 2010;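 active = about 74% or more and at least 40 points above the plate without the antibiotic, then above 30% in a dose series; inconclusive = first-round hits that could not be retested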;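 note: growth measured after seven days incubation then overnight dye step; 0% = bacteria only wells and 100% = bacteria with antibiotic; twin plates without the antibiotic show which effects depend on it; some results filed as inactive read as strong as hits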
YopH PTP inh – YopH tyrosine phosphatase inhibitors, primary screen, biochemical, fluorescence Ex485/Em525; YopH tyrosine phosphatase [Yersinia enterocolitica]; inhibition, %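 (about 10 µM by stock and volumes)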; 140,000 tested, 0.16% active;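 active = inhibition of 50% or more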;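 note: controls were vehicle for no effect and minimum signal wells for full effect; inactives centre near -20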
Arbovirus inh repeat – recorded beside Arbovirus inh, whose call it bears; inhibition, %; measured here: 10K subset replicate screen; many hits read low in the repeat;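 first of two repeat runs on a subset; 0% = infected and 100% = uninfected wells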
* marks the source's active call; other numbers are inactive results; ? = inconclusive; · = no result given. Only part of the results is shown. The share of hits here may be higher or lower than overall.

SMILES	Arbovirus inh	RecA intein inh	Mtb H37Rv	Mtb betalactam	YopH PTP inh	others
Cc1ccnc(N/C=C/C(=O)c2ccc(Br)cc2)c1	·	-5.8	·	-4	·
COc1ccccc1N1CCN(/N=C/c2ccc(O)c(O)c2)CC1	-18	-4.6	3%	-9	·
Cc1c(OCC(=O)NCC(O)c2ccccc2)ccc2c(-c3ccccc3)cc(=O)oc12 (stereo unspecified)	·	0.4	·	1	·
Cc1nnc(N)s1	·	2.2	-6%	-4	·
O=C(CCCn1c(=O)[nH]c2ccccc2c1=O)N1CCN(c2ccccn2)CC1	6	-0.6	·	6	-8	Arbovirus inh repeat=9
O=C(N/C(=C/c1ccc(Br)cc1)C(=O)N1CCCC1)c1ccccc1F	-2	-2.0	-3%	7	-10
O=C(OCC1OC(Oc2ccc(O)cc2)C(O)C(O)C1O)c1ccccc1 (stereo unspecified)	·	-4.6	·	-2	·
Cn1c(=O)c2c(nc(N/N=C/c3ccncc3)n2Cc2ccccc2)n(C)c1=O	·	-0.4	-11%	-9	·
Cc1nc(C)c(C)nc1C	1	0.1	-1%	7	·
CSCCC(NC(=O)c1ccccc1Br)C(=O)NC(C)CCc1ccccc1 (stereo unspecified)	·	-0.3	·	33	·
CN(C)c1ncc(S(=O)(=O)c2ccccc2)c(N)n1	-1	-1.2	4%	-3	·
COc1ccc(N(C)C(=O)c2cc3c(s2)-c2ccc(Cl)cc2S(=O)(=O)C3)c(OC)c1	·	-2.8	·	1	·
CCc1nc2ccccc2c(C(=O)Oc2ccc(C(=O)OC)cc2)c1C	7	-5.2	·	45	-14
O=C(N/C(=C/c1cccc([N+](=O)[O-])c1)C(=O)N1CCCC1)c1ccccc1	·	1.8	·	0	·
N#CC1(N2CCN(C(=O)c3ccccc3)CC2)CCCCC1	·	-4.2	·	-4	·
COc1cc(C(=O)Oc2c(OC)cc(C(=S)N3CCOCC3)cc2OC)cc(OC)c1OC	·	-3.3	·	-1	·
CNC(=O)COc1ccccc1C(=O)Nc1ccc2c(c1)oc1ccccc12	-6	3.2	2%	-13	-8
Cc1ccc(S(=O)(=O)C/N=C(/NC(=S)N(c2ccccc2)c2ccccc2)c2ccccc2)cc1	-7	6.7	-5%	2	-18
COCCn1nnnc1CN1CCN2CCCC2C1 (stereo unspecified)	2	0.1	-8%	0	-40
CCOc1ccccc1OCCN1CCCC1	·	-0.1	·	-10	·

Next section (2 carried over from the part before).
SMILES	Arbovirus inh	RecA intein inh	Mtb H37Rv	Mtb betalactam	YopH PTP inh	others
COCCn1nnnc1CN1CCN2CCCC2C1 (stereo unspecified)	2	0.1	-8%	0	-40
CCOc1ccccc1OCCN1CCCC1	·	-0.1	·	-10	·
COc1cc(C2CC(=O)C=C(O)C2)cc(OC)c1OC (stereo unspecified)	5	0.4	-11%	6	11	Arbovirus inh repeat=1
COC(=O)c1c(C(=O)OC)c2n(c1C)CCC2	3	0.0	-2%	-11	-2
CN1CCN(c2ccc(-c3ccnn3C(=O)Nc3ccccc3)cc2)CC1	-2	-2.9	0%	-4	·
Nn1c(SCC(=O)Nc2cccc(C(F)(F)F)c2)nncc1=O	·	14	·	3	·
Cc1ccc(Cl)cc1N1CCN(C(=O)C2CCCN(S(=O)(=O)c3cnc[nH]3)C2)CC1 (stereo unspecified)	7	-1.3	1%	-8	-42
COc1cccc(CNC(=S)Nc2ccc(Cl)cc2C)c1	·	1.5	·	6	·
COCCN(C(=O)CCC(=O)Nc1cc(C)on1)C(C(=O)NC1CCCC1)c1ccc(C(C)C)cc1 (stereo unspecified)	·	1.7	·	2	·
CCOc1ccc(CN(C)C(=O)[C@H](Cc2ccccc2)NC(=O)OCc2ccccc2)cc1OC	·	7.6	·	5	·
O=C(Nc1ccc(Cl)cc1)N1CCC(c2nc(-c3ccccc3Cl)no2)CC1	-30	4.4	15%	18	12
Cc1ccccc1-n1cc(-c2ccc(Br)cc2)nc1SCC(N)=O	·	1.9	13%	-2	·
CN(C(=O)COC(=O)c1ccccc1C(=O)N1CCN(c2ccccc2)CC1)c1ccccc1	-2	-0.9	3%	-4	·
O=c1[nH]c(CN2CCN(c3ccccn3)CC2)nc2c(Br)cc(Br)cc12	·	0.9	-12%	93	·
COc1ccc(NC(=S)N(CCN(C)C)C(C)c2ccco2)cc1Cl (stereo unspecified)	12	1.6	?	-4	-30
Cc1ccc2nc(C)cc(NCCO)c2c1	-8	-1.0	-1%	-15	1
COc1cccc(C(C)NC(=O)Nc2cc(Cl)ccc2OC)c1 (stereo unspecified)	-2	-1.0	0%	5	·
COc1ccc(-n2c(COc3ccc(C)cc3)n[nH]c2=S)cc1	·	-0.3	·	-1	·
CCC(C)[C@H](NC(=O)OC(C)(C)C)C(=O)N/N=C/c1ccc2nccnc2c1 (stereo partly specified)	-11	1.0	1%	·	4
O=C(O)c1ccc(COCC(F)(F)F)cc1	3	-1.3	-4%	11	-19
O=C(CCNC(=O)Cn1cnc2ccccc2c1=O)NCCC1=CCCCC1	1	-2.8	-6%	1	-33
Oc1ccc(Cl)cc1Nc1nc(NCC2CCCO2)c2ccccc2n1 (stereo unspecified)	·	2.0	49%	77	·

Fetched one by one from above:
SMILES	Arbovirus inh	RecA intein inh	Mtb H37Rv	Mtb betalactam	YopH PTP inh	others
COC(=O)c1c(C(=O)OC)c2n(c1C)CCC2	3	0.0	-2%	-11	-2
Cc1ccc(S(=O)(=O)C/N=C(/NC(=S)N(c2ccccc2)c2ccccc2)c2ccccc2)cc1	-7	6.7	-5%	2	-18

Next section.
SMILES	Arbovirus inh	RecA intein inh	Mtb H37Rv	Mtb betalactam	YopH PTP inh	others
COc1ccc(N2CCN(c3nc(C)c(C)c(=O)[nH]3)CC2)cc1	·	-0.4	·	1	·
CN(C)S(=O)(=O)c1cccc(NC(=S)N2CCc3ccccc32)c1	12	2.5	1%	2	·
CN(Cc1ccccc1NC(=O)c1ccc(S(=O)(=O)N(C)C)cc1)C1CCCCC1	47*	-0.2	-6%	3	·
Cc1cccc(NS(=O)(=O)c2ccc(C(C)(C)C)cc2)n1	·	-0.2	·	9	·
COc1ccccc1C(CNc1nc(C(F)(F)F)nc2ccccc12)N(C)C (stereo unspecified)	·	-3.9	·	4	·
Cc1cc(Cl)ccc1Oc1nc(-c2ccc(F)cc2)ccc1C#N	-15	3.6	1%	15	-17
Cc1ccc2ccc(C)[n+](CCCS(=O)(=O)[O-])c2c1	0	-0.2	-3%	0	·
CCN1CCN(C(=S)NCC(C)C)CC1	-5	-3.0	1%	-7	-16
CC(C)Cc1nc2ccccc2[nH]1	·	-1.4	-7%	-4	·
COc1ccccc1NNC(=O)c1cccnc1Oc1ccccc1	·	-0.8	0%	25	·
COc1ccc(Nc2cc(C(=O)NC3CCCC3)c3ccccc3n2)c(OC)c1	·	-13	·	5	·
CCN1CCCC1CNc1ncnc2c1[nH]c1ccc(Cl)cc12 (stereo unspecified)	-19	1.1	7%	-18	-20
COc1cc(C(=O)N2CCN(C3CCC(C)CC3)CC2)cc(OC)c1OC (stereo unspecified)	·	2.0	·	-1	·
COc1ccc(CC(=O)NCC(=O)NC(Cc2ccccc2)C(=O)O)cc1 (stereo unspecified)	·	1.4	·	1	·
CC1(C)OC(=O)N(Cc2ccco2)C1(C)O (stereo unspecified)	7	-0.2	-2%	-8	-21
COCCCNC(=O)c1ccc(Cn2c(=O)c3ccccc3n(CC(=O)NCc3ccco3)c2=O)cc1	-8	-0.6	-4%	-5	·
COC(=O)c1ccc(NS(=O)(=O)c2ccc(Cl)cc2)o1	2	-3.6	6%	-2	·
O=C(COC(=O)Cc1ccc(Br)cc1)NC1CCCCC1	10	1.2	3%	-1	·
O=C(COc1ccccc1)N(Cc1cc2ccccc2[nH]c1=O)CC1CCCO1 (stereo unspecified)	0	-2.7	-2%	?	-46
Cc1cccn2cc(-c3cccc(S(=O)(=O)N4CCOCC4)c3)nc12	·	-0.1	·	-2	·

In the list so far, these contain bromine.
SMILES	Arbovirus inh	RecA intein inh	Mtb H37Rv	Mtb betalactam	YopH PTP inh	others
Cc1ccnc(N/C=C/C(=O)c2ccc(Br)cc2)c1	·	-5.8	·	-4	·
O=C(N/C(=C/c1ccc(Br)cc1)C(=O)N1CCCC1)c1ccccc1F	-2	-2.0	-3%	7	-10
CSCCC(NC(=O)c1ccccc1Br)C(=O)NC(C)CCc1ccccc1 (stereo unspecified)	·	-0.3	·	33	·
Cc1ccccc1-n1cc(-c2ccc(Br)cc2)nc1SCC(N)=O	·	1.9	13%	-2	·
O=c1[nH]c(CN2CCN(c3ccccn3)CC2)nc2c(Br)cc(Br)cc12	·	0.9	-12%	93	·
O=C(COC(=O)Cc1ccc(Br)cc1)NC1CCCCC1	10	1.2	3%	-1	·

More entries follow:
SMILES	Arbovirus inh	RecA intein inh	Mtb H37Rv	Mtb betalactam	YopH PTP inh	others
CC(=O)NC(NC(C)=O)c1cccc(OCc2ccccc2)c1	-1	-2.7	-3%	-5	14
CC(C)CNC(=O)C1Nc2ccccc2C2C=CCC12 (stereo unspecified)	·	11	-7%	12	·
O=C(OCC#CCSc1nc2ccccc2o1)c1cc2ccccc2o1	-1	-0.4	5.7µM*	99	-8
CCN(CC)C(=O)CSc1nc2ccc(NC(=O)CSc3nnc(COc4ccccc4C)n3C)cc2s1	8	-1.9	3%	-5	-26
N#CC1=C(N)Oc2cc(N)ccc2C1c1cc(Br)cs1 (stereo unspecified)	·	-2.0	·	-2	·
Cc1cc(C=O)c(C)n1-c1ccc(N2CCOCC2)cc1	-1	-0.1	-3%	5	-18
Cc1nc2ccc(NC(=O)N3CCOCC3)cc2nc1C	3	-2.6	-9%	-4	·
COc1cccc(C(=O)N2CCN(C(=O)c3cccs3)CC2)c1OC	-2	0.5	-15%	-15	-33
CN(C)C(CNC(=O)CCCN1C(=O)c2cccc3cccc(c23)C1=O)c1ccccc1 (stereo unspecified)	·	-2.0	·	-4	·
CCN(CC)S(=O)(=O)c1ccc(Cl)c(C(=O)N2CCc3ccccc32)c1	-7	·	-2%	-11	-13
O=C1c2ccccc2C(=O)N1c1cccnc1	8	-3.0	-9%	2	-15
COc1ccccc1CNC(=O)C1CCN(Cc2nc(-c3cccc(Cl)c3)oc2C)CC1	0	-0.6	-2%	85	-28
COC(=O)c1cc(S(=O)(=O)NCC2CCN(Cc3cccc(F)c3)CC2)c[nH]1	·	-5.6	·	13	·
CN(C(=O)COC(=O)CNC(=O)c1ccc2ccccc2c1)c1c(N)n(Cc2ccccc2)c(=O)[nH]c1=O	·	0.3	·	-15	·
OCc1cnc[nH]1	6	1.7	1%	3	-48
CCc1nc(N2CCN(Cc3ccc4c(c3)OCO4)CC2)c2oc3ccccc3c2n1	-25	1.2	6%	91	-7
CCOc1ccccc1NC(=O)CCS(=O)(=O)c1ccc(OC)cc1	3	-0.1	0%	-4	·
CCOC(=O)c1sc(NC(=O)Nc2ccc(Cl)cc2)nc1C	1	-1.6	-5%	-2	-38
Cn1c(SCC(=O)Nc2ccc3[nH]c(=O)[nH]c3c2)nnc1-c1ccccc1	·	0.0	·	-4	·

An excerpt from above in order of formula weight, descending:
SMILES	Arbovirus inh	RecA intein inh	Mtb H37Rv	Mtb betalactam	YopH PTP inh	others
CN(C(=O)COC(=O)CNC(=O)c1ccc2ccccc2c1)c1c(N)n(Cc2ccccc2)c(=O)[nH]c1=O	·	0.3	·	-15	·
CCc1nc(N2CCN(Cc3ccc4c(c3)OCO4)CC2)c2oc3ccccc3c2n1	-25	1.2	6%	91	-7
COC(=O)c1cc(S(=O)(=O)NCC2CCN(Cc3cccc(F)c3)CC2)c[nH]1	·	-5.6	·	13	·
CCOc1ccccc1NC(=O)CCS(=O)(=O)c1ccc(OC)cc1	3	-0.1	0%	-4	·
CCOC(=O)c1sc(NC(=O)Nc2ccc(Cl)cc2)nc1C	1	-1.6	-5%	-2	-38
OCc1cnc[nH]1	6	1.7	1%	3	-48
